Screening data from PubChem BioAssay.
Mtb hypoxia rep = Mtb hypoxia fluorescent reporter inhibition. M. tuberculosis hypoxia-regulated fluorescent reporter, fluorescence. fluorescence inhibition, % (test concentration not listed). hit rate 0.1% among 300,000;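 active = 35 to 45% if threefold the growth effect, above 45% if 1.5-fold the growth effect; inactive = the rest, general growth blockers included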;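 note: wells of about 50 µL received 100 nL stock; 0% = vehicle wells and 100% = reference inhibitor wells; whole bacteria with a GFP reporter of the hypoxia response; strong numbers were not always called active; many hits fall short of the cut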
Autofluor counter = flagged as autofluorescent in microsphere protease counterscreen; compound autofluorescence counterscreen, microsphere flow cytometry; active compounds read high; hit rate 3.1% among 360,000; fluorescence intensity (test concentration not listed); AID 624483;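 active = at least 3 SD above the mean of all compounds, about 16000 in these data; inconclusive = too few beads counted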;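 note: 100 nL of 1 mM stock went into each well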
RN4220 kill = kills Staphylococcus aureus RN4220; S. aureus RN4220 growth, OD600, 16 h; inhibition, % (no concentration beside the values); hit rate 0.33% among 330,000;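 active = z-score of -3 or lower and OD600 up to 0.18 on both plates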;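 note: plate controls were untreated cells for no effect and reference antibiotic for full effect; stock transfer was 100 nL into about 80 µL; one replicate is shown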
BJeLR lethal = kills HRASV12-expressing BJeLR cells | BJeLR (HRASV12) viability, CellTiter-Glo ATP luminescence, 48 h; reference of the scale not given here | inhibition, % (test concentration not listed) | hit rate 0.17% among 300,000;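 active = replicate mean above 50%; inconclusive = above 50% but judged a plate artefact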;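 note: 50 nL library stock added to about 25 µL; numbers are from one replicate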
PrP 5UTR inh = suppresses PrP 5' UTR mRNA reporter expression | cell-based PrP 5' UTR mRNA reporter, plate reader | inhibition, % (no concentration beside the values) | hit rate 0.35% among 340,000 | AID 488862;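 active = every replicate at 50% or more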;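 note: 0 = median of the neutral control wells; tested in H4 reporter cells; numbers are from one replicate; inactives centre near -14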
ugtP null kill = kills S. aureus RN4220 lacking UgtP; S. aureus RN4220 ugtP deletion, OD600 growth, 16 h; some inactives read as strong as hits; growth inhibition, % (no concentration beside the values); hit rate 0.54% among 330,000; AID 1259309;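 active = z-score under -3 and OD600 up to 0.15 on both plates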;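 note: plate controls were untreated wells for no effect and antibiotic for full effect; wells of about 80 µL received 100 nL stock; the first replicate is given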
Mtb hypoxia rep growth = also measured in Mtb hypoxia rep; calls as there; growth inhibition, %; measured here: M. tuberculosis growth (absorbance);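 0% = vehicle and 100% = reference antibiotic; read after six days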
Active calls of the source: *; ? = inconclusive; . = no result given.

Results follow in this order: Mtb hypoxia rep, Mtb hypoxia rep growth, Autofluor counter, RN4220 kill, BJeLR lethal, PrP 5UTR inh, ugtP null kill
> COc1ccc(C=NNC(=O)CNC(=O)c2ccc(S(=O)(=O)N3CCCC3)cc2)c(OC)c1
→ 13, 0, ., 4.5, ., ., 5
> Cc1cccc(Nc2ccccc2C(=O)OCC(=O)N(C)C2CCS(=O)(=O)C2)c1C (configuration not stated)
→ 4, 11, 10298, 4.4, -13, 9, -6
> O=C1C=C(c2cc(Cl)cc(Cl)c2)CC(c2ccc(F)cc2)C1 (configuration not stated)
→ ., ., ., -8.0, ., ., 16
> CCc1cc(C(=O)NNC(=S)NC2CCCCC2)cs1
→ 11, 0, 5937, 1.1, 0, -36, 1
> O=C(COc1ccccc1)NC(=S)Nc1cccc2cc(O)ccc12
→ 13, -6, ?, -4.9, 3, -2, -4
> Clc1nnc(Cl)c2c1ncn2Cc1ccccc1
→ 16, 0, 4063, 1.6, 6, -11, 4
> O=C(COc1cc2oc(=O)c3c(c2cc1Cl)CCC3)NCCN1CCOCC1
→ 13, 5, 5407, -0.6, 0, -22, 0
> CC1(C)CC(N2CCN(Cc3ccccc3)CC2)=CC(=[N+]2CCCCC2)C1
→ -7, 1, 3202, 3.3, 1, -17, 8
> C/C(=N/Oc1nc(C)cc(C)n1)c1ccc(Cl)cc1Cl
→ ., ., 3278, ., 1, -13, .
> Cc1ccccc1-n1c(=C(C#N)C(=O)Nc2ccccc2)sc(=Cc2ccco2)c1=O
→ 1, 5, ., -1.6, ., ., -12
> NC(=O)C1=C[C@H](c2coc3ccccc3c2=O)C[C@H](OCc2ccc(CO)cc2)O1
→ ., ., 3108, ., -10, 0, .
> Cc1ccc(NC(=O)c2cnccn2)cc1S(=O)(=O)N(C)C
→ 9, 14, 1880, 2.9, -7, -10, 1
> Cc1ccc(CNC(=O)COC(=O)c2ccc(S(=O)(=O)N(C)C)cc2)cc1
→ -6, 0, 2486, 2.0, 6, -34, -2
> CCOc1ccc(NS(=O)(=O)c2coc(C(N)=O)c2)cc1
→ ., ., 5413, 1.6, -8, -12, 6
> Cc1ccc(S(=O)(=O)NC(=O)c2cc(C)n(CCCn3ccnc3)c2C)cc1
→ -13, -5, 3297, 0.8, 6, -15, -1

(list continues)
Results follow in this order: Mtb hypoxia rep, Mtb hypoxia rep growth, Autofluor counter, RN4220 kill, BJeLR lethal, PrP 5UTR inh, ugtP null kill
> Cc1ccc(OCC(=O)Nc2ccc(S(=O)(=O)N3CCN(C)CC3)cc2)cc1
→ ., ., 4344, 5.4, 0, -17, 4
> COc1ccc(NC(=O)NCCCN2CCN(c3cc(C)ccc3C)CC2)cc1
→ 10, 13, 5530, -8.5, -3, -12, -2
> COC(=O)C1=C(c2ccc(Cl)c(C(F)(F)F)c2)C[C@@H]2CC[C@H]1N2C(=O)N1CCC(C)CC1
→ 10, 12, 4274, 2.3, ., 1, 3
> Cc1ccc(NC(=O)c2ccccc2NS(=O)(=O)c2ccc(Cl)s2)cc1S(=O)(=O)N1CCOCC1
→ 0, 5, 2499, 31, 17, -18, 28
> Cc1cc(C(=O)COc2ccc3ccc(=O)oc3c2)c(C)n1Cc1cccs1
→ -1, -1, 2229, 3.5, -19, -15, 17
> Cc1ccc(NC(=O)C2C3CCC(O3)C2C(=O)O)cc1C (configuration not stated)
→ 14, 10, 3088, 8.2, 2, 1, 5
> O=[N+]([O-])c1cc(/C=N\Nc2nc(-c3ccccc3)cs2)ccc1O
→ ., ., 4040, ., 1, -42, .
> CC#CC(=O)N1CCC(Oc2cccc(C(=O)NCc3ccccn3)c2)CC1
→ 2, 5, 5100, 1.5, -6, -10, 5
> COc1ccccc1/C=C\C(=O)NCC(=O)NN=Cc1ccc(O)cc1O
→ 11, 4, ., 2.0, ., ., -4
> CCN(CC)C(=O)CN1C(=O)COCC1=O
→ -5, 6, 13245, -2.6, 3, 4, -4
> CC(OC(=O)c1ncc(Cl)c(Cl)c1Cl)C(=O)NC1CCCCC1C (configuration not stated)
→ -6, -4, 6884, 9.5, -10, -1, 3

Reformatted with each value named: entries from further up
molecule: COC(=O)C1=C(c2ccc(Cl)c(C(F)(F)F)c2)C[C@@H]2CC[C@H]1N2C(=O)N1CCC(C)CC1
  Mtb hypoxia rep: 10	Mtb hypoxia rep growth: 12	Autofluor counter: 4274	RN4220 kill: 2.3	BJeLR lethal: .	PrP 5UTR inh: 1	ugtP null kill: 3
molecule: Cc1ccc(NC(=O)c2ccccc2NS(=O)(=O)c2ccc(Cl)s2)cc1S(=O)(=O)N1CCOCC1
  Mtb hypoxia rep: 0	Mtb hypoxia rep growth: 5	Autofluor counter: 2499	RN4220 kill: 31	BJeLR lethal: 17	PrP 5UTR inh: -18	ugtP null kill: 28
molecule: Cc1cc(C(=O)COc2ccc3ccc(=O)oc3c2)c(C)n1Cc1cccs1
  Mtb hypoxia rep: -1	Mtb hypoxia rep growth: -1	Autofluor counter: 2229	RN4220 kill: 3.5	BJeLR lethal: -19	PrP 5UTR inh: -15	ugtP null kill: 17
molecule: Cc1ccc(NC(=O)C2C3CCC(O3)C2C(=O)O)cc1C (configuration not stated)
  Mtb hypoxia rep: 14	Mtb hypoxia rep growth: 10	Autofluor counter: 3088	RN4220 kill: 8.2	BJeLR lethal: 2	PrP 5UTR inh: 1	ugtP null kill: 5

Compound profiles, from the list above. Screens in order: Mtb hypoxia rep, Mtb hypoxia rep growth, Autofluor counter, RN4220 kill, BJeLR lethal, PrP 5UTR inh, ugtP null kill
`CC#CC(=O)N1CCC(Oc2cccc(C(=O)NCc3ccccn3)c2)CC1` in the list: 2, 5, 5100, 1.5, -6, -10, 5
`COc1ccccc1/C=C\C(=O)NCC(=O)NN=Cc1ccc(O)cc1O` in the list: 11, 4, ., 2.0, ., ., -4
`O=[N+]([O-])c1cc(/C=N\Nc2nc(-c3ccccc3)cs2)ccc1O` in the list: ., ., 4040, ., 1, -42, .
